Screens from PubChem.
CBX7 inh = CBX7 chromodomain binding inhibitors, primary screen, biochemical, AlphaScreen; AID 1224903, 2016; hit rate 1.1% among 66,000; normalised signal (fraction of DMSO) (test concentration not listed); AlphaScreen His6-CBX7 / biotin-H3K27me3 peptide binding; stronger effect = lower value; in the data active means normalised signal below about 0.5;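 further: 100 nL library stock added to about 20 µL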
Target sequence (O95931 whole entry, looked up): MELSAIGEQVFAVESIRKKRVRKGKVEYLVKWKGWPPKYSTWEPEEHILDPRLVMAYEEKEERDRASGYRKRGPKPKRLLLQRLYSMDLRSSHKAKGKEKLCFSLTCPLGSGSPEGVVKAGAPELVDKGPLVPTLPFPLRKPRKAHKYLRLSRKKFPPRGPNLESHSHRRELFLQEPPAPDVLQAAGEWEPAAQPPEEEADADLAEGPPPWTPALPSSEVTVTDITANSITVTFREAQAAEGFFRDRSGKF
CBX7 inh z-score = second read-out of CBX7 inh, no call of its own (marks repeat the call); z-score; measured here: z-score of CBX7 signal; some inactives read as strong as hits; reference of the scale not given here;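 same signal on another scale; lower means less binding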
* = called active by the depositor. This is a subset. The share of hits here may be higher or lower than overall.

The first four entries, to show the layout:
Compound,CBX7 inh,CBX7 inh z-score
CCOc1ccc(C(=O)N2CC(=O)Nc3ccc(Cl)cc3C2c2ccccc2)cc1OCC (stereo not given),0.83,-4.2
COc1ccc(Cl)cc1C(=O)Nc1ccc2oc(-c3cccnc3)nc2c1,1,0.75
O=C(c1nn2c(c1Cl)NC(c1ccccc1)CC2C(F)(F)F)N1CCCCCC1 (stereo not given),1,1.5
O=C(Nc1ccc(-c2noc(COc3ccccc3Cl)n2)cc1)c1cccs1,1.2,2.1

The listing, previewed entries included:
Compound,CBX7 inh,CBX7 inh z-score
CCOc1ccc(C(=O)N2CC(=O)Nc3ccc(Cl)cc3C2c2ccccc2)cc1OCC (stereo not given),0.83,-4.2
COc1ccc(Cl)cc1C(=O)Nc1ccc2oc(-c3cccnc3)nc2c1,1,0.75
O=C(c1nn2c(c1Cl)NC(c1ccccc1)CC2C(F)(F)F)N1CCCCCC1 (stereo not given),1,1.5
O=C(Nc1ccc(-c2noc(COc3ccccc3Cl)n2)cc1)c1cccs1,1.2,2.1
COc1ccc(NC(=O)CSc2nnc(C)c(=O)[nH]2)cc1,0.86,-1.7
Cc1ccc(-n2c3c(cc(C(=O)Nc4ccccc4F)c2=O)C(=O)CCC3)cc1,1,0.34
Cc1nc(SCC(=O)Nc2cccc(C(F)(F)F)c2)c2cnn(-c3ccccc3)c2n1,1.1,3.3
O=C(c1cc(-c2cccc(O)c2)on1)N1CCN(Cc2ccccc2)CC1,1,0.86
CCOc1ccc(NC(=O)CSc2nccn2-c2cccc(OC)c2)cc1,1.1,0.16
O=C(NCCc1ccc(Cl)cc1)c1ccc2c(c1)N(Cc1ccccc1)C(=O)c1ccccc1S2,0.99,-0.12
O=C(O)C1CCCCC1C(=O)N1CCN(c2nc(-c3ccccc3Cl)c3cc(Br)ccc3n2)CC1 (stereo not given),1.1,1
CCOC(=O)c1cnc2ccc(OC)cc2c1Nc1ccc(C)cc1,0.99,-0.13
CC(NC(=O)c1cc(=O)[nH]c2ccc(Br)cc12)c1ccccc1 (stereo not given),0.9,-1.9
COCCN(CCOC)S(=O)(=O)c1ccc(C(=O)Nc2nnc(COC)o2)cc1,0.58,-11
COc1cc(OC)c(N(C)C(=O)CCNC(=O)Cn2cnc3ccccc3c2=O)cc1Cl,0.99,-0.32
COc1ccc(N(C)C(=O)CCc2nc(-c3ccc(C)cc3)no2)cc1,1.2,2.7
CC(=O)c1oc2ccccc2c1NC(=O)CN1CCCCC1,1,0.18
Cc1ccc(C)c2[nH]c(=O)c(CCNC(=O)c3ccc(Cl)cc3Cl)cc12,1,1.1
CCOc1ccccc1CN1C(=O)CCC1(C)C(=O)NCCc1ccc(OC)c(OC)c1 (stereo not given),1.2,2.3
O=C(CCc1nc2ccccc2[nH]1)NCc1ccc2c(c1)OCO2,1,1.8
O=C1CC(C(=O)NC2CCCCC2)(c2ccccc2F)N1c1cc(C(F)(F)F)ccc1Cl (stereo not given),1.1,2.1
CCc1ccc2nc(N3CCC(C(=O)NC4CCC(C)CC4)CC3)sc2c1 (stereo not given),1.1,1.9
COc1ccc(OCc2nc3ccccc3n2Cc2ccccc2)cc1,0.89,-4
Cc1cc(C)cc(NC(=O)C2CCN(Cc3cnn(-c4ccccc4)c3-n3cccc3)CC2)c1,1,1.1
CCOc1ccc(NC(=O)c2ccc(OCC)c(Br)c2)cc1,1.1,1.4
COC(=O)c1ccccc1NC(=O)C1(S(=O)(=O)c2ccc(C)cc2)CC1,1,0.59
CCc1cccc(NC(=O)CCc2c(C)nc3cc(-c4ccccc4OC)nn3c2C)c1,1.1,2.5
O=C(Nc1ccc2c(c1)OCO2)C(c1ccccc1)N(Cc1ccccc1)Cc1ccccc1 (stereo not given),0.81,-1.2
CCc1nn(CC(=O)Nc2cc(C)on2)c2ccccc12,1,0.63
COc1ccc(NC(=O)c2ccc(NS(=O)(=O)c3cccs3)cc2)cc1Cl,1,0.63

Compound,CBX7 inh,CBX7 inh z-score
CCOc1ccc(-c2nc3c(C(=O)OC)c[nH]n3c2NC2CCCCC2)cc1OC,0.7,-5.9
CCN(CC)c1ccc(C2CC(=O)C3=C(C2)Nc2ccccc2NC3c2ccc(OC)cc2)cc1 (stereo not given),0.63,-6.3
Nc1nonc1-c1noc(-c2ccccc2)n1,1.1,0.61
Cc1noc(C)c1S(=O)(=O)NCCN1CCN(c2ccccc2F)CC1,0.96,-0.16
Cc1nnn(C23CC4CC(CC(CC(=O)Nc5ccc(Cl)cc5)(C4)C2)C3)n1,0.95,-0.56
COc1ccc(CNS(=O)(=O)c2ccc3c(c2)CCN3C(C)=O)cc1,1,1.5
O=C(Nc1ccc(S(=O)(=O)Nc2ncccn2)cc1)c1ccc(Br)cc1,0.98,-0.47
CCOC(=O)c1cnc2c(C)cc(C)cc2c1Nc1ccc(OCC)cc1,1.1,0.69
CCOc1c(OC)cccc1C1CC(=O)Nc2cc(OC)cc(OC)c21 (stereo not given),1.1,0.85
O=C(Cc1ccc(Cl)cc1)Nc1ccc(-c2nc3ccccc3o2)cc1,1.1,2.7
Cc1ccc(-c2nn(C)c(=O)c3ccccc23)cc1S(=O)(=O)N(C)C1CCCCC1,0.85,-1.9
COc1ccc(-c2cc(C(F)(F)F)nc(NCc3ccc(Cl)cc3)n2)cc1,1.3,13
Cn1c(=O)cc(OCCCC(=O)NCc2ccccn2)c2ccccc21,0.86,-2.2
COc1ccc(-c2cc(C(=O)Nc3c(C)nn(Cc4ccc(F)cc4)c3C)no2)cc1OC,0.99,-0.18
O=c1[nH]c2ccccc2nc1Cc1ccc(F)c(F)c1,1.2,2.3
COc1ccc(-c2cn3c(C)c(C(=O)NCc4cccnc4)sc3n2)cc1,1,0.23
Cn1c2ccccc2c2c(C(=O)NC3CC3)cn(C3CCCC3)c(=O)c21,1.1,1.4
CCCC(=O)NCCc1nc2ccccc2n1Cc1ccccc1C,1.1,0.94
Cc1ccc(S(=O)(=O)N2CCC(C(=O)Nc3cccc(Cl)c3C)CC2)cc1,1,0.018
CCOC(=O)c1c(NC(=O)c2ccc(C)c(C)c2)sc2c1CCCCC2,1.2,1.7
COc1ccc(CCN(C)C2CC(=O)N(c3ccc(F)cc3)C2=O)cc1OC (stereo not given),1.1,1.9
COc1ccc(NC(=O)c2cc(C)nn2-c2ccccc2)cc1,0.95,-0.39
C=CCN(CC=C)S(=O)(=O)c1ccc(C(=O)Nc2cccc(-c3nc4ccccc4[nH]3)c2)cc1,0.92,-0.58
O=C([C@@H](c1ccccc1)N1Cc2ccccc2C1=O)N1CCN(c2ccccn2)CC1,1,0.83
CCCCCn1c(CCNC(=O)c2ccc(Cl)cc2)nc2ccccc21,0.98,-0.28
O=C(O)c1c2c(nc3ccccc13)CCCCC2,0.97,-0.76
COc1ccc(CNC(=O)Cn2nc(Cc3cccnc3)c3ccccc3c2=O)c(OC)c1,0.96,-0.052
O=C(CCNC(=O)Cn1ccc2ccccc2c1=O)NCC1COc2ccccc2O1 (stereo not given),0.98,-0.54
COc1ccc(C(=O)c2oc3ccccc3c2NC(=O)COc2c(C)cccc2C)cc1,1.2,4.6
O=C(c1ccc(NC2=NC3CS(=O)(=O)CC3S2)cc1)N1CCCC1 (stereo not given),1.3,2

Compound,CBX7 inh,CBX7 inh z-score
Cn1c(=O)c2nc(-c3cccc(F)c3)oc2c2ccccc21,0.99,-0.19
CCCCc1ccc(NC(=O)C(C(C)C)N2C(=O)c3ccccc3C2=O)cc1 (stereo not given),1.2,1.9
Cc1nc2c(-c3cccc(Br)c3)c[nH]n2c(=O)c1Cc1ccccc1,0.98,-0.31
Cc1nc2cc(-c3ccccc3)nn2c(C)c1CCC(=O)Nc1ccc(Cl)cc1,1,0.89
CC1CCN(c2nc3ccc(C(=O)NCc4cccc(Br)c4)cc3s2)CC1,1,0.48
COc1ccc(CCCc2nnc(SCC(=O)Nc3cccc(F)c3C)o2)cc1,0.91,-0.83
Cc1ccn2c(Nc3ccccc3)c(-c3cccs3)nc2c1,1.1,2.7
CC1(C)CC(=O)C2=C(C1)c1c(ccc3ncccc13)NC2c1ccc(Br)cc1 (stereo not given),1.2,1.9
Cc1c(C)n(C)c2ccc(C(=O)Nc3ccccc3C(N)=O)cc12,0.78,-2.3
Cc1ccccc1Nc1c(-c2ccccc2)nc2c(C)cccn12,1,0.41
CN(C)CC#CCOC(c1ccccc1)c1ccccc1,0.89,-2.2
COc1cccc(C(=O)Nc2ccc3oc(-c4cccc(Br)c4)nc3c2)c1,1,1.5
CCOc1ccc(NC(=O)c2cc3sc(Cl)cc3n2CC)cc1,0.99,-0.57
O=C(CSc1nc2ccccc2o1)NC1CCCC1,0.83,-2.7
CC(C)C[C@@H](CO)Nc1c2ccccc2nc2ccccc12,1,0.21
Cc1nc2c(C(=O)NC(C)c3ccccc3)cnn2c(C)c1Cc1ccccc1 (stereo not given),1,0.87
Cc1ccc(S(=O)(=O)C2(C(=O)Nc3cccnc3)CC2)cc1,1.2,3.7
O=C(Nc1ccccc1)c1cc(S(=O)(=O)N2CCCc3ccccc32)cs1,0.93,-1.7
O=C1CC(N2CCN(CCO)CC2)C(=O)N1c1ccccc1 (stereo not given),1.1,0.89
CCOc1ccc(CCNC(=O)CS(=O)(=O)Cc2nc(-c3cccc(OC)c3)oc2C)cc1,1.1,0.89
CCN(CC)c1ccc(C(=O)Nc2ccc3nc(N(CC)CC)cc(C)c3c2)cc1,1,0.69
CC(C)c1ccc(NS(=O)(=O)c2cnc[nH]2)cc1,1,0.17
COc1ccc2c(c1)CCc1c(C(=O)N3CCCc4ccccc43)noc1-2,1.2,1.6
CCOc1ccc(-n2c(Cc3cc(=O)[nH]c(=O)[nH]3)nnc2SCc2ccccc2)cc1,1.1,2.5
COc1ccc(NC(=O)c2c(-c3ccccc3Cl)noc2C)cc1Cl,1.1,0.65
Cc1[nH]c2ccc(-c3nnc(SCCc4ccccc4)n3-c3ccccc3)cc2c1C,0.78,-2.9
COC(=O)c1nnn(-c2nonc2N)c1CN1CCN(C)CC1,1.1,0.53
CCCn1c(CCCNC(=O)COC)nc2ccccc21,0.96,-1.1
CC1CCCCC1NC(=O)COc1ccc2c(c1)C(=O)CC(C)(C)O2 (stereo not given),0.81,-2.1
CCC1Oc2ccc(C)cc2N(CC(=O)NCCCN2CCC(C)CC2)C1=O (stereo not given),1,0.29

Compound,CBX7 inh,CBX7 inh z-score
CC(=O)Nc1ccc2c(c1)N(C(=O)CN(C)C)c1ccccc1CC2,1,0.82
CCC(C)NC(=O)Cc1c(C(=O)O)[nH]c2ccc(Cl)cc12 (stereo not given),0.98,-0.35
COc1ccccc1CNC(=O)c1sc2ncn(CC(=O)N3CCC(C)CC3)c(=O)c2c1C,0.81,-2.1
COc1cc(OC)cc(-c2nc3nc(C)c(CCC(=O)NCCc4ccc(Cl)cc4)c(C)n3n2)c1,1,0.17
CCCCSCCCNC(=O)c1ccc2c(c1)N(CC)C(=O)c1ccccc1S2=O (stereo not given),0.94,-1.5
Nc1ccnc(C(F)(F)F)c1C(=O)c1ccccc1,1.1,1.2
Cc1ccc(CSc2nc3ccncc3n2Cc2nc(-c3ccccc3)oc2C)cc1,1.1,1.9
Cc1ccc(C(C(=O)NC2CCCCC2)N2CCCC(C)C2)cc1 (stereo not given),0.93,-1.9
Cc1cccn2cc(-c3cccc(S(=O)(=O)N4CCCC(C)C4)c3)nc12 (stereo not given),0.97,-1.4
CCC1CCCCN1C(=O)c1cn(CC)c(=O)c2cc(OC)c(OC)cc12 (stereo not given),1.3,2.5
Cc1ccc(-c2nnc(Nc3cccc(C(F)(F)F)c3)c3ccccc23)cc1S(=O)(=O)NCCO,0.7,-3.4
COc1ccc(CCNC(=O)c2cc(-c3ccc(OC)c(OC)c3)on2)cc1OC,1,0.19
COc1ccc(C(C)=O)cc1N1C(=O)C2C3C=CC(CO)(O3)C2C1=O (stereo not given),0.96,-0.41
CCC(=O)N1CCc2cc(S(=O)(=O)Nc3ccc(Br)cc3C)ccc21,1.1,0.73
CN(C)CCNC(=O)c1ccc2c(c1)N(Cc1ccc(Cl)cc1)C(=O)c1ccccc1S2(=O)=O,0.88,-1.3
O=C(NCCCc1ccccc1)c1cc2c(s1)CS(=O)(=O)C2,1,0.58
CCOc1ccc2nc(C)cc(Nc3ccc(Br)cc3)c2c1,0.99,-0.2
O=C(NC1CC1)C1CCC(=O)N1Cc1ccc(F)cc1 (stereo not given),1,0.18
COc1ccccc1-n1cnc2cc(C(=O)NCC(OC)OC)ccc21,1,0.58
CCOC(=O)c1cnc2c(Cl)cccc2c1Nc1ccc(C)cc1,1.1,0.35
COc1cc(OC)cc(C(=O)Nc2nc(-c3ccccc3)c(C(=O)c3ccccc3)s2)c1,1.1,1.5
O=C(O)c1ccc(CNc2c(N3CCCCC3)c(=O)c2=O)cc1,1,0.36

Already shown: entries from further up.
Compound,CBX7 inh,CBX7 inh z-score
CCOc1ccc(C(=O)N2CC(=O)Nc3ccc(Cl)cc3C2c2ccccc2)cc1OCC (stereo not given),0.83,-4.2
COc1ccc(Cl)cc1C(=O)Nc1ccc2oc(-c3cccnc3)nc2c1,1,0.75
O=C(c1nn2c(c1Cl)NC(c1ccccc1)CC2C(F)(F)F)N1CCCCCC1 (stereo not given),1,1.5
O=C(Nc1ccc(-c2noc(COc3ccccc3Cl)n2)cc1)c1cccs1,1.2,2.1
COc1ccc(NC(=O)CSc2nnc(C)c(=O)[nH]2)cc1,0.86,-1.7
Cc1ccc(-n2c3c(cc(C(=O)Nc4ccccc4F)c2=O)C(=O)CCC3)cc1,1,0.34
Cc1nc(SCC(=O)Nc2cccc(C(F)(F)F)c2)c2cnn(-c3ccccc3)c2n1,1.1,3.3
